HSV replic up = increases HSV replication in cells; HSV replication augmentation in cells, fold increase; maximum fold increase; actives 0.005% (n = 220,000);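 active means peak rise of 1.5-fold or more in the series; tested in PC3 cells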;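 further: first round at 10 µM; read as green reporter fluorescence; hits show the peak of a series up to 25 µM; 1 = signal of infected wells without compound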
GALR2 agonist = activates the human galanin receptor 2. GALR2-expressing cells, agonist activation read-out. AID 803. O43603. actives 0.48% (n = 140,000). activation, %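 (tested at 5 µM)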;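 active means above mean plus 3 SD of all compounds, about 5% in these data, not always enough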;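 further: 0% = vehicle buffer wells and 100% = reference agonist at full effect; tested in CHO reporter cells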
INS promoter inh = TRM-6 insulin promoter activity inhibition. inhibition, % at 2 µM. AID 1273. TRM-6 cells (human fetal islet line), insulin promoter-eGFP reporter, imaging; reporter expression induced with tamoxifen. actives 0.9% (n = 130,000);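 active means inhibition above the mean plus 3 SD, with well images judged a real hit on visual review, cut at about 60% in these data, passing the limit was not always enough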
PKD1 inh = blocks activity of human protein kinase D1; Q15139; PKD1 kinase fluorescence polarization assay; inhibition, %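 (about 10 µM by stock and volumes)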; actives 0.056% (n = 200,000); AID 797;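 active means inhibition of 50% or more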;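 further: controls were vehicle for no effect and a reference inhibitor for full effect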
Target sequence (Q15139 whole entry, looked up): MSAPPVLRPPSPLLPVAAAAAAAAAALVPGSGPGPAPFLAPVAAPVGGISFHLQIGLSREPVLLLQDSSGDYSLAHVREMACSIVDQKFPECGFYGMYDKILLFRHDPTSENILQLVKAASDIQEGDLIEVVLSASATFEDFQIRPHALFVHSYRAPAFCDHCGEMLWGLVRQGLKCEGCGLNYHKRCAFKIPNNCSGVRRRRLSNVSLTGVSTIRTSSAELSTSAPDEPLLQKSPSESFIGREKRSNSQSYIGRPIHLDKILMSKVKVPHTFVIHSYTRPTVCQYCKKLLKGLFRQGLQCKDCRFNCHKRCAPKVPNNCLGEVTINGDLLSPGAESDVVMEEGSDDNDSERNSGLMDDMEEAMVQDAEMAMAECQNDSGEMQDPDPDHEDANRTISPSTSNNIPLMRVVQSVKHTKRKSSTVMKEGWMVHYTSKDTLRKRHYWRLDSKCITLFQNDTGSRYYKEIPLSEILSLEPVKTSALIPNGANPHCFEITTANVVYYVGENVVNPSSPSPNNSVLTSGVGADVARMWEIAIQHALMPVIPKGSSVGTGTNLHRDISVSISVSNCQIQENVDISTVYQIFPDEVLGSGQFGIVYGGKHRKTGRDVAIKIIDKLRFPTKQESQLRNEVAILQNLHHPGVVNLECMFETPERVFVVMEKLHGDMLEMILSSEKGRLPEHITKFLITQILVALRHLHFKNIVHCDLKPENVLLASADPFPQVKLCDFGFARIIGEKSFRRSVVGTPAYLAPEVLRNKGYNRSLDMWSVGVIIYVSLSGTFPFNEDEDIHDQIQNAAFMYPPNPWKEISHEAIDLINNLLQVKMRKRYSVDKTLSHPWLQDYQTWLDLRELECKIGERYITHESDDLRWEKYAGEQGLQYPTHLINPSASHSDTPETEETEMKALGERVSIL
RGS16-Gao = modulates binding between human RGS16 and Galphao; binding response (% of control), % at 10 µM; actives 0.38% (n = 220,000); O15492+P09471; bead-based flow cytometry RGS16-Galphao binding, fluorescence; actives lie on both sides;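 active means below 25% or above 175%, edge rows of some plates excepted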;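 further: Galphao activated by GDP with aluminum fluoride before binding; 100% = wells without compound and 0% = beads without RGS; some results beyond the cut were filed as inactive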
INS promoter inh cell count = also measured in INS promoter inh; calls as there; normalized cell count, %; measured here: cell count, toxicity; reference of the scale not given here;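 cells exposed to compound for 48 h; stained nuclei by imaging scaled within each plate; lower means fewer cells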
HSV replic up primary fold = recorded beside HSV replic up, whose call it bears; fold increase; compound at 10 µM; measured here: primary screen fold increase 10 uM; tested in PC3 cells;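 GFP signal in the first replicate; 1 = infected wells without compound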
* hit, by the source's call; i = inactive; · = no result given.

nr	SMILES	RGS16-Gao	GALR2 agonist	INS promoter inh	INS promoter inh cell count	PKD1 inh	HSV replic up	HSV replic up primary fold
1	CCc1nnc(NC(=O)C2CCCN(S(=O)(=O)c3ccc(OC)cc3)C2)s1 (stereo unspecified)	112	·	-5	184	1	i	0.98
2	O=c1cc(COc2ccccc2[N+](=O)[O-])nc2sccn12	104	·	·	·	·	i	1
3	COc1ccc(CCNC(=O)CSc2ccc(-c3ccccc3)nn2)cc1OC	101	-0.9	-32	59	-10	i	0.91
4	COCc1nnc(N)s1	108	-1.0	-6	69	2	i	0.93
5	N#Cc1ccccc1CN1C(=O)NC(Cc2c[nH]c3ccccc23)C1=O (stereo unspecified)	94	·	·	·	-3	i	0.86
6	O=C(Nc1ccc(Cl)c(C(F)(F)F)c1)c1ccco1	98	-0.9	55	180	3	i	1.2
7	CCC(=O)NCC(c1cccs1)N1CCOCC1 (stereo unspecified)	102	-0.3	-50	192	-6	i	0.92
8	COc1ccc(OC)c(S(=O)(=O)N2CCC(C(=O)NCCc3ccc(OC)c(OC)c3)CC2)c1	·	-0.5	-22	48	-9	i	1
9	CCOc1ccc(C2C(C(=O)c3ccc(C)o3)=C(O)C(=O)N2CCN2CCOCC2)cc1OC (stereo unspecified)	95	-2.6	·	·	-7	i	1
10	O=C(NCCc1nc2ccccc2[nH]1)c1ccco1	99	-0.9	-21	104	2	i	0.89
11	Cc1c(C(=O)NCCSCc2ccccc2Cl)cccc1[N+](=O)[O-]	112	-1.8	26	96	9	i	0.89
12	Cc1oc(C(C)(C)C)cc1C(=O)Nc1cccc(/C=C/C(=O)O)c1	93	-1.6	-23	96	-6	i	0.93
13	COCCCNC(=O)C1CC(=O)N(CCc2ccc(OC)c(OC)c2)C1 (stereo unspecified)	105	-0.5	8	95	10	i	1
14	O=C1CC(/C=C/c2ccco2)=Nc2ccccc2N1	91	0.3	·	·	-8	i	0.85
15	COC(=O)c1ccc(NC(=S)NCCc2cccc(C)c2)cc1	117	-3.4	-15	83	-6	i	0.73
16	Cc1ccccc1NC(=O)c1ccc(C)c(S(=O)(=O)Nc2ccccn2)c1	101	-1.1	17	90	2	i	1.1
17	Cc1ccc(NC(=O)C2CC(=O)NC(Nc3cccc(C)c3)=N2)cc1 (stereo unspecified)	90	-1.2	15	84	-15	i	0.95
18	CCN1CCN(S(=O)(=O)c2ccc(S(=O)(=O)NCC3CCCO3)cc2)CC1 (stereo unspecified)	98	-2.1	·	·	-8	i	1.1
19	Cc1cc(C)n(C(=O)COc2ccc(Cl)cc2Cl)n1	105	-0.5	24	128	-5	i	1.3
20	CCOc1ccc(C(=O)C2CCN(C(=O)c3ccccc3C(=O)O)CC2)cc1	96	-2.3	-10	101	-6	i	1.5
21	Cc1ccc(NC(=S)NCCCN2CCOCC2)cc1C	100	·	·	·	·	i	1.1
22	Cc1cccc(Nc2nnc(SCC(=O)c3ccc(Br)s3)s2)c1C	105	-0.2	-27	131	3	i	1.1
23	O=C(CCCc1ccccc1)NC1CC1	94	-1.2	-131	76	10	i	0.97
24	O=C(O)C1C2C=CC(C2)C1C(=O)NCCc1cccc(Cl)c1 (stereo unspecified)	106	2.8	33	52	-1	i	0.92
25	CCCCCC(=O)Nc1cccc(C2=NOC3(C2)C[C@@H](C(N)=O)N(C(=O)c2cc([N+](=O)[O-])cc([N+](=O)[O-])c2C)C3)c1 (stereo partly specified)	101	·	·	·	·	i	0.75

Entries 1–2 from above:
nr	SMILES	RGS16-Gao	GALR2 agonist	INS promoter inh	INS promoter inh cell count	PKD1 inh	HSV replic up	HSV replic up primary fold
1	CCc1nnc(NC(=O)C2CCCN(S(=O)(=O)c3ccc(OC)cc3)C2)s1 (stereo unspecified)	112	·	-5	184	1	i	0.98
2	O=c1cc(COc2ccccc2[N+](=O)[O-])nc2sccn12	104	·	·	·	·	i	1

Further structures follow.
nr	SMILES	RGS16-Gao	GALR2 agonist	INS promoter inh	INS promoter inh cell count	PKD1 inh	HSV replic up	HSV replic up primary fold
26	CC(C)(C)OC(=O)N1CCC(c2c(C(=O)O)cnn2-c2ccc(Cl)cc2)CC1	106	-1.1	0	101	2	i	1.1
27	CCCSc1nnc(-c2ccccc2N)c(=O)[nH]1	99	0.5	-27	84	4	i	0.73
28	Cc1ccc(C)c(N(CC(=O)NCc2ccco2)C(=O)CCC(=O)Nc2ccccn2)c1	98	-0.8	-22	38	1	i	0.73
29	COC(=O)C1CCN(CC(=O)NC(=O)NC2CCCCC2)CC1	106	·	33	116	-4	i	1
30	CCOc1ccc(-c2nnc(-c3ccncc3)o2)cc1	96	-2.1	-21	85	0	i	0.93
31	CCCCOC(=O)CCCN1C(=O)/C(=C2\SC(=S)N(CCCC(=O)OCCCC)C2=O)SC1=S	98	·	·	·	·	i	0.92
32	COc1ccc2[nH]c(=O)c(CN(Cc3nnnn3Cc3ccc(F)cc3)CC3CCCO3)cc2c1 (stereo unspecified)	104	-1.4	-118	124	-2	i	0.98
33	COc1ccc(-c2c(C)[nH]n3c(=O)c(Cc4ccccc4)c(C)nc23)cc1	108	-1.0	·	·	-10	i	0.88
34	C=C(C)c1cccc(C(C)(C)NC(=O)N2CCN(C/C=C/c3ccccc3)CC2)c1	95	-3.3	-30	35	-6	i	0.96
35	CCCCc1nn(-c2cc(Cl)ccc2OC)c2c1C(=O)CCC2	104	-2.2	·	·	-13	i	0.88
36	Cc1ccccc1-n1c(C)n[nH]c1=S	84	-2.9	-50	85	-2	i	1.2
37	COC(=O)c1ccc(NCCc2csc(-c3ccc(C)cc3)n2)c([N+](=O)[O-])c1	106	-1.1	35	67	4	i	0.89
38	COc1ccc(C[C@H]2CN3C(=NC[C@H]3C)N2CCNC(=O)CCC2CCCCC2)cc1	101	·	·	·	-1	i	1
39	O=S(=O)(c1ccccc1)c1nc(-c2ccco2)oc1NCc1cccnc1	64	-0.9	-18	118	-8	i	0.99
40	O=c1ccc(Oc2nc(N3CCOCC3)nc(N3CCOCC3)n2)nn1-c1ccccc1	102	-2.7	27	76	-3	i	1
41	O=C(c1ccc(F)cc1)C1CCN(Cc2cn[nH]c2-c2ccc(F)cc2)CC1	100	·	·	·	·	i	0.89
42	Cc1ccc(-n2c(SCC(N)=O)nnc2-c2cccnc2)c(C)c1	98	-0.6	·	·	-6	i	0.86
43	Cc1ccc(NC(=O)CN2CCC(NC(=O)Cc3ccccc3)CC2)c(C)c1	105	0.4	-32	138	-14	i	0.86
44	COc1cccc(-n2c(Cc3cc(=O)[nH]c(=O)[nH]3)nnc2SCC(=O)N2CCCCC2)c1	103	-1.1	·	·	-6	i	0.97
45	Cc1ccc(CN2CCN(Cc3ccc(C)s3)CC2CCO)cc1 (stereo unspecified)	105	·	·	·	-8	i	0.98
46	CN(C)/C=C(\C#N)C(=O)Nc1ccc(F)cc1	97	-0.9	-3	127	-13	i	0.99
47	CCOC(=O)C1=C(C)N=C2SC(C)C(=O)N2C1c1ccc(OCC)c(OCC)c1 (stereo unspecified)	104	-2.3	-93	54	-9	i	0.96
48	CN(C)C=NC(=O)c1cc(C(=O)c2ccccc2Cl)c[nH]1	102	·	·	·	4	i	0.79
49	CCOC(=O)C1=C(N)Oc2c(oc(CO)cc2=O)C1c1ccccc1 (stereo unspecified)	104	·	33	73	-6	i	0.98
50	COc1ccc(Oc2cccc(Cl)c2CNC(=O)CCC(=O)O)cc1	98	·	·	·	·	i	0.94

Fetched one by one from the entries so far (6):
nr	SMILES	RGS16-Gao	GALR2 agonist	INS promoter inh	INS promoter inh cell count	PKD1 inh	HSV replic up	HSV replic up primary fold
31	CCCCOC(=O)CCCN1C(=O)/C(=C2\SC(=S)N(CCCC(=O)OCCCC)C2=O)SC1=S	98	·	·	·	·	i	0.92
43	Cc1ccc(NC(=O)CN2CCC(NC(=O)Cc3ccccc3)CC2)c(C)c1	105	0.4	-32	138	-14	i	0.86
42	Cc1ccc(-n2c(SCC(N)=O)nnc2-c2cccnc2)c(C)c1	98	-0.6	·	·	-6	i	0.86
36	Cc1ccccc1-n1c(C)n[nH]c1=S	84	-2.9	-50	85	-2	i	1.2
41	O=C(c1ccc(F)cc1)C1CCN(Cc2cn[nH]c2-c2ccc(F)cc2)CC1	100	·	·	·	·	i	0.89
46	CN(C)/C=C(\C#N)C(=O)Nc1ccc(F)cc1	97	-0.9	-3	127	-13	i	0.99

(continued)
nr	SMILES	RGS16-Gao	GALR2 agonist	INS promoter inh	INS promoter inh cell count	PKD1 inh	HSV replic up	HSV replic up primary fold
51	O=C1CC2CS(=O)(=O)CC2N1c1ccc(Oc2ccccc2)cc1 (stereo unspecified)	106	-1.8	-230	68	-3	i	0.95
52	NC(=O)Cn1cc(C(=O)COc2ccccc2)c2ccccc21	106	·	·	·	-1	i	1.1
53	COc1cc(CNC2CCC(C)C2)cc(OC)c1 (stereo unspecified)	97	1.2	39	58	-3	i	0.98
54	Cc1c(Cl)cccc1NC(=S)NCc1ccco1	98	·	·	·	·	i	1
55	CCN(CC)C(=O)CSc1nnc(-c2ccncc2)n1N	65	-2.5	-20	67	-10	i	0.75
56	CC1CN(C)C(c2ccccc2)C(C)C12NC(=O)NC2=O (stereo unspecified)	101	-0.3	11	66	6	i	0.95
57	COc1ccc(CN2CCN(Cc3cn(C)nc3-c3ccccc3)CC2CCO)c(C)c1C (stereo unspecified)	100	·	·	·	-5	i	0.9
58	Cc1cccc(C(=O)Nc2nnc(SCC(=O)Nc3ccc4c(c3)oc3ccccc34)s2)c1	102	-0.9	-10	72	-4	i	0.73
59	Cc1ccc(S(=O)(=O)/N=C(\N)Nc2nc(C)c3cc(C)c(C)cc3n2)cc1	107	-2.2	-22	103	7	i	0.89
60	O=C(CSc1ncccn1)N/N=C/c1ccc(OC2CSC2)cc1	106	·	-20	198	-4	i	0.94
61	Cc1ccc(NC(CC(=O)c2ccccc2)c2ccc(F)cc2)cc1 (stereo unspecified)	91	-1.5	-63	75	2	i	0.86
62	CC1CC(=O)N(c2ccc(NCCc3ccccc3)c([N+](=O)[O-])c2)C1=O (stereo unspecified)	98	·	·	·	-1	i	1
63	CCOC(=O)c1ccc(NC2=CC(=O)CC(c3ccco3)C2)cc1 (stereo unspecified)	104	·	·	·	-1	i	1
64	Cc1oc(C(N)=O)cc1COc1ccc(C(N)=O)cc1	99	·	·	·	·	i	0.96
65	O=C(O)C1C2CCC(C2)C1C(=O)Nc1nc2ccccc2s1 (stereo unspecified)	102	-2.4	53	129	-6	i	0.9
66	CC1(C)Cc2c(c(N3CCOCC3)nc3snc(Br)c23)CO1	102	1.2	-14	129	10	i	1.1
67	O=C(CCS(=O)(=O)c1ccccc1)NC12CC3CC(CC(C3)C1)C2	112	0.6	-43	149	-1	i	0.91
68	Cc1cc2c(c(SCC(N)=O)n1)C(=O)OC2	101	·	·	·	-4	i	0.94
69	O=C(Cc1cccs1)Nc1ccccn1	100	-1.3	54	93	0	·	·
70	Cc1nnc(SCC(=O)NC2CCCC2)s1	85	-1.4	30	106	-6	i	0.98
71	O=C(CN1C(=O)c2ccccc2C1=O)Nc1cccc([N+](=O)[O-])c1	101	-1.1	28	105	-2	i	1
72	N=c1n(Cc2ccccc2Cl)c2ccccc2n1CC(O)c1ccco1 (stereo unspecified)	111	·	·	·	-4	i	0.89
73	N#CC1=C(N)Oc2c(ccc3cccnc23)C1c1ccncc1 (stereo unspecified)	99	·	·	·	·	i	0.84
74	Cc1ccccc1C(=O)NC(=S)NCc1cccnc1	97	·	·	·	2	i	1.1
75	O=c1[nH]c(=O)n(Cc2ccccc2)c2nc(-c3ccc(Oc4ccc(F)cc4)c([N+](=O)[O-])c3)n(CCO)c12	98	-0.4	74*	49*	6	i	0.89
76	CC(C)c1c(O)nc(SCCC(=O)O)[nH]c1=O	102	-2.9	32	66	-8	i	0.93
